StopGo RLuc = lowers the Renilla signal of an FMDV 2A StopGo reporter | HEK cells with a luciferase reporter of 2A StopGo recoding | Potency, µM (titrated, usually from 57.5 µM), inactives show top-dose signal change, negative = less light | actives 0.32% (n = 120,000); active means well fitted falling curve with a large enough effect; inconclusive means small, poorly fitted or top-dose-only effect; inactive means no such curve, though single readings can be large or run the other way; also: nearly all actives have a fitted effect of over 55% in size; overnight with compound
2A firefly = FMDV 2A StopGo reporter, firefly signal; HEK cells with a luciferase reporter of 2A StopGo recoding; Potency, µM (highest dose often 57.5 µM), inactives show top-dose signal change, negative = less light; actives 0.23% (n = 120,000); AID 1745856; active = well fitted falling curve with a large enough effect; inconclusive = small, poorly fitted or top-dose-only effect; inactive = no such curve, though single readings can be large or run the other way; also: nearly all actives have a fitted effect of over 60% in size; overnight with compound
An asterisk follows results filed as active; ? = inconclusive; & = joins results of further samples; [ ] = remark or other dose. % is scaled to controls: 0 for no effect and ±100 for the full control effect; potency is read from the fitted curve at half-maximal effect. Some of the compounds tested; the hit share may differ from the screen's.

Sample of the layout, four compounds:
SMILES | StopGo RLuc | 2A firefly
CCn1nnc2cc(C(=O)Nc3cccc(C(F)(F)F)c3)ccc21 | 7% | 35%[activator]
Cc1nc2ccccc2nc1SCC(=O)NC(C)c1cccc2ccccc12 (stereo unspecified) | 10% | 20%
N#C/C(=C\c1ccc(OC(=O)c2ccc(Cl)cc2)cc1)C(=O)Nc1ccccc1C(F)(F)F | ? | ?
CCC(=O)Nc1sc2c(c1C(=O)Nc1ccccc1C)CCC(C)C2 (stereo unspecified) | 11% | -17%

Main list, from the first entry:
SMILES | StopGo RLuc | 2A firefly
CCn1nnc2cc(C(=O)Nc3cccc(C(F)(F)F)c3)ccc21 | 7% | 35%[activator]
Cc1nc2ccccc2nc1SCC(=O)NC(C)c1cccc2ccccc12 (stereo unspecified) | 10% | 20%
N#C/C(=C\c1ccc(OC(=O)c2ccc(Cl)cc2)cc1)C(=O)Nc1ccccc1C(F)(F)F | ? | ?
CCC(=O)Nc1sc2c(c1C(=O)Nc1ccccc1C)CCC(C)C2 (stereo unspecified) | 11% | -17%
O=C(CCCc1ccccc1)NC1CC(=O)N(c2ccc(F)cc2)C1 (stereo unspecified) | 12% | 8%
Cc1ccc(N2CCN(C(=O)c3cc(S(=O)(=O)N4CCCCC4)c[nH]3)CC2)c(C)c1 | -2% | -14%
O=C(CSCc1ccc(F)cc1)N1CCc2c([nH]c3ccccc23)C1c1ccccc1 (stereo unspecified) | ? | -18%
Cc1csc(NC(=O)CCc2ncc(-c3c(F)cccc3F)o2)n1 | 10% | 0%
CCC(Sc1nc2ncccc2[nH]1)C(=O)Nc1ccccc1F (stereo unspecified) | 18% | 10%
CCOc1ccc(-c2cc(C(=O)NC3CCCC3)c3ccccc3n2)cc1 | -3% | 52%[activator]
Cc1cccc(-c2noc(CNC(=O)c3ccccc3Br)n2)c1 | -10% | 15%
Cn1nc(C(=O)Nc2nc(-c3ccc[nH]3)cs2)c2ccccc2c1=O | 13% | 0%
COC(=O)COc1nc(CC(C)C)c2c(c1C#N)CCCC2 | 17% | 9%
CCc1cc2c(cc3c(=O)n(CCCC(=O)NCc4cccc(Cl)c4)ncn32)s1 | -7% | ?
CCOC(=O)C1CCCN(C(=O)Cn2ncn3nc(-c4cccs4)cc3c2=O)C1 (stereo unspecified) | 2% | 4%
Cc1ccn2c(Nc3ccc(C(C)C)cc3)c(-c3cccnc3)nc2c1 | -8% | -21%
Cc1cc(C)n(CCc2nc3cc(NC(=O)COc4ccc(Cl)cc4)ccc3n2C)n1 | ? | ?
O=C(O)c1ccc(Cl)c(NC(=O)c2ccc(Cl)s2)c1 | 5% | 137%[activator]
CC(C)Oc1ccc(CNC(=O)CN2C(=O)CCc3cc(S(=O)(=O)N4CCCCC4)ccc32)cc1 | -23% | -21%
CCCCOc1ccc(NC(=O)c2ccc(Cl)cc2)c2cccnc12 | 7% | 5%
O=C(c1ccc2c(c1)N(Cc1ccc(Cl)cc1)C(=O)c1ccccc1S2(=O)=O)N1CCN(Cc2ccccc2)CC1 | 37%[activator] | 3%
CCCCCn1c(=N)n(CC(O)COc2cccc(C)c2)c2ccccc21 (stereo unspecified) | 25µM* | ?
CCCCCCn1nc(C(=O)OCC(=O)NCc2ccccc2F)c2ccccc2c1=O | ? | 8%
CCc1nn(-c2ccccc2)c2c1CN(C(=O)NCC(=O)OC)C(c1ccc(F)cc1)c1cccn1-2 (stereo unspecified) | -15% | -13%
CCOC(=O)c1sc(NC(=O)Nc2ccc(Cl)c(Cl)c2)nc1C | 0% | 92%[activator]

Single records (already shown). Order of values: StopGo RLuc | 2A firefly
Record of CCc1nn(-c2ccccc2)c2c1CN(C(=O)NCC(=O)OC)C(c1ccc(F)cc1)c1cccn1-2 (stereo unspecified) → -15% | -13%
Record of O=C(CCCc1ccccc1)NC1CC(=O)N(c2ccc(F)cc2)C1 (stereo unspecified) → 12% | 8%
Record of CCOC(=O)c1sc(NC(=O)Nc2ccc(Cl)c(Cl)c2)nc1C → 0% | 92%[activator]
Record of Cc1cc(C)n(CCc2nc3cc(NC(=O)COc4ccc(Cl)cc4)ccc3n2C)n1 → ? | ?
Record of O=C(O)c1ccc(Cl)c(NC(=O)c2ccc(Cl)s2)c1 → 5% | 137%[activator]

Looked up one by one from the entries so far, 3 records:
SMILES | StopGo RLuc | 2A firefly
COC(=O)COc1nc(CC(C)C)c2c(c1C#N)CCCC2 | 17% | 9%
Cn1nc(C(=O)Nc2nc(-c3ccc[nH]3)cs2)c2ccccc2c1=O | 13% | 0%
CCCCOc1ccc(NC(=O)c2ccc(Cl)cc2)c2cccnc12 | 7% | 5%

(list continues)
SMILES | StopGo RLuc | 2A firefly
COc1ccc(C(C(=O)NCc2ccccc2)N(C(=O)Cn2nnc3ccccc32)c2ccc(F)cc2)cc1 (stereo unspecified) | 154%[activator] | 69%[activator]
Nc1c(-c2nc(-c3cccs3)no2)nnn1-c1cccc(F)c1 | 7% | 133%[activator]
Cc1ccc(-c2nnc(Nc3ccc(OCC(N)=O)cc3)c3ccccc23)cc1S(=O)(=O)N(C)C | 20% | -1%
COc1cccc(-n2cc(C(=O)OCc3ccc(F)c(F)c3)c3ccccc3c2=O)c1 | -7% | -28%
Brc1cccc(-c2nn(-c3ccccc3)c3c2cnc2cc4c(cc23)OCO4)c1 | -2% | -7%
CC(C)c1ccc(-c2csc(NC(=O)Cn3ncc4ccccc4c3=O)n2)cc1 | -8% | 66%[activator]
Cc1ccc(CS(=O)(=O)c2ncc(Cl)c(C(=O)Nc3nc4ccc(C)cc4s3)n2)cc1 | -14% | 29%
Cc1ccc(-c2nnc3ccccc3c2C(=O)Nc2ccccc2F)cc1 | -7% | 120%[activator]
COC(=O)c1ccc(OC(=O)C2(c3ccccc3)CCC2)cc1 | 1% | 4%
CCOC(=O)[C@]12CCCCC/C=C\1N(Cc1ccc(OC)cc1)C(=O)[C@H]2CC(=O)N1CCCCC1 | 22% | -10%
COc1ccc(NC(=O)c2sc3nc4c(cc3c2N)CN(Cc2ccccc2)CC4)cc1OC | -6% | 7%
Cc1cc(C)c(C(=O)COC(=O)COc2ccc(Cl)c(C)c2)cc1C | 9% | 18%
Cc1onc(-c2ccc(F)cc2F)c1C(=O)NCc1cccs1 | 7% | 0%
CC(C)(C)C(=O)/C=c1/[nH]c(=O)/c(=C/c2cccc(C(F)(F)F)c2)s1 | 1% | 6%
Cc1ccc(CN2C(=O)C3(c4ccccc42)N(c2ccc(C)c(Cl)c2)C(=O)CS3(=O)=O)cc1 (stereo unspecified) | 5% | -5%
Nc1ccccc1OCc1ccccc1 | 4% | 0%
CCOc1ccccc1Oc1coc2cc(OCc3ccccc3)ccc2c1=O | -1% | 130%[activator]
CC(=O)Oc1ccc2c(C)c(CC(=O)NCCc3ccc(Cl)cc3)c(=O)oc2c1OC(C)=O | -1% | 16%
CC(C1CC1)N(Cc1ccccc1)S(=O)(=O)c1ccc(Cl)cc1 (stereo unspecified) | 62%[activator] | 14%
CCOC(=O)c1c(C)oc2ccc(N(C(=O)c3ccncc3)S(=O)(=O)c3ccc(Br)cc3)cc12 | 340%[activator] | 54%[activator]
Cc1cc(=O)oc2cc(OCC(=O)OCC(=O)Nc3ccc(C(N)=O)cc3)ccc12 | 1% | 4%
Cc1cc(O)c(C(C)(C)C)cc1Sc1cc(C(C)(C)C)c(O)cc1C | ? | ?
CC(C)CN1CCOC(CNC(=O)N2CCN(S(=O)(=O)c3ccc(F)cc3)CC2)C1 (stereo unspecified) | -5% | -6%
CCc1ccc(OCC(=O)Nc2ccc(OC)cc2OC)c(-n2cnnc2)c1 | 10% | 18%
Cn1c(CNC(=O)c2ccccc2Br)nnc1SCC(=O)N1CCOCC1 | -1% | 1%
Next part
SMILES | StopGo RLuc | 2A firefly
Cc1ccc(NC(=O)CSc2nc(-c3ccc(F)cc3)nc3c2Cc2c(CO)cnc(C)c2O3)cc1C | -9% | -10%
COc1ccccc1NC(=O)CSc1nc2c(=O)[nH]cnc2n1-c1ccccc1 | 0% | 0%
O=S(=O)(NCCc1csc2nc(-c3cccc(F)c3)nn12)c1ccc2c(c1)CCCC2 | -8% | -3%
Cc1ccc(N2CCN(C(=O)CCc3c(C)nc4c(c3C)c(=O)n(C)c(=O)n4C)CC2)c(C)c1 | -17% | -26%
CNC(=O)c1ccc(CN(CC(=O)NC2(C#N)CCCCC2)C2CC2)cc1 | 1% | 0%
Cc1[nH]c2ccccc2c1C(=O)C(C)Oc1ccc(Cl)c2ccccc12 (stereo unspecified) | -10% | 10%
Cc1ccc(N2CCN(C(C(=O)O)c3cn(CC(=O)O)c4cc(F)ccc34)CC2)c(C)c1 (stereo unspecified) | 9% | 13%
CCc1ccccc1NC(=O)Cn1ccn(-c2ccc(OC)cc2)c(=O)c1=O | -17% | -20%
COc1ccc(C(C)NC(=O)c2[nH]c3c(c2C)C(=O)CCC3)cc1F (stereo unspecified) | -7% | 25%
Cc1ccc2c(CN3CCN(c4ccccn4)CC3)cc(=O)oc2c1C | -4% | 9%
O=c1[nH]c(=O)n(-c2ccc(F)cc2)c2c1CN(C1CCCCC1)CN2 | 17% | 22%
Cc1ccc(OC(=O)C(C)Oc2ccc(Cl)cc2Cl)c(C)c1 (stereo unspecified) | 21% | 0%
O=C1CC(c2ccc(C(=O)O)cc2)c2sc(C(=O)O)c(-c3ccccc3)c2N1 (stereo unspecified) | -8% | -1%
CC(C)N(Cc1ccccc1)S(=O)(=O)c1ccc(-c2cc(C(F)(F)F)on2)s1 | 5% | 4%
Cc1ccccc1OCC(=O)Nc1ccc2nc(SCC(=O)N3CCc4ccccc43)sc2c1 | -16% | -11%
Cc1ccc(Cl)cc1N1CCN(C(=O)c2cn(C3CCCCC3)c(=O)c3c2c2ccccc2n3C)CC1 | -7% | -8%
O=C(NCCC(c1ccccc1)c1ccccc1)c1ccc2ccccc2n1 | 14% | 24%
N#CC1=C(N)OC2=C(C(=O)CCC2)C1c1ccc(OC(=O)N2CCOCC2)cc1 (stereo unspecified) | -1% | 0%
O=C1CC(c2ccccc2)Sc2nc(-c3ccc(F)cc3)nn21 (stereo unspecified) | -7% | -6%
O=C(O)c1cc(Cl)c(O)c(Cl)c1 | -2% | -8%
CC(NC(=O)c1nccnc1N)c1ccc2ccccc2c1 (stereo unspecified) | ? | ?
Cc1ccc(NC(=O)C2CCCN(c3nnc(-n4c(C)ccc4C)s3)C2)cc1Cl (stereo unspecified) | 0%&25% | 110%&91%[activator]
CNC(=O)COC(=O)c1cc(-c2ccc(F)cc2)nc2ccccc12 | -5% | 54%[activator]
COc1ccc2c(Sc3ccc(C)cc3)c(C(=O)NC(C)c3ccccc3)[nH]c2c1 (stereo unspecified) | 0% | 2%
CC(C)c1cccc(N(C)CC(=O)NC(N)=O)c1 | -3% | -7%
Following part:
SMILES | StopGo RLuc | 2A firefly
Cc1ccc(C2SCc3cc(C)c(C)cc3CS2)c(O)c1 | 94%[activator] | 0%
CCCCn1cnc2c1c(=O)n(CC(=O)Nc1ccc(C)c(F)c1)c(=O)n2CCCC | -10% | -9%
O=C(O)c1cc2ccc(-c3ccccc3)cc2[nH]1 | 12% | 107%[activator]
Cc1ccc(-n2c(SCC(N)=O)nc3c(oc4ccccc43)c2=O)cc1 | -9% | 2%
COC(=O)c1c(C)[nH]c(C(=O)OC(C)c2nnc(-c3ccccc3)o2)c1C (stereo unspecified) | 11% | 7%
N#Cc1ccc(COc2ccc(Br)cc2Br)cc1 | 39%[activator] | 124%[activator]
CC(C)CCn1c(SCC(N)=O)nc2c1c(=O)[nH]c(=O)n2C | 0% | 5%
Cc1c(C(=O)C(=O)NCc2ccccc2Cl)c2ccccc2n1C | 114%[activator] | 12%
Cc1ccc(/C=C(/C#N)C(=O)c2ccsc2)cc1C | 11% | 4%
Cc1cc(C)c(SC(C)C(=O)NC2CC2)c(C)c1 (stereo unspecified) | -9%[1.06 µM] | -5%
Fc1cccc(CCNc2ncnc3nc[nH]c23)c1 | -26% | 65%[activator]
CCc1noc(-c2ccc(N3CCCCC3C)c([N+](=O)[O-])c2)n1 (stereo unspecified) | 9% | 148%[activator]
Cc1ccc2oc(-c3cc(NC(=O)c4ccccc4C)ccc3O)nc2c1 | -9%&-6% | -5%&-2%
NC(=O)c1ccccc1OCc1coc(-c2ccc(F)cc2)n1 | ? | 6%
CCn1nc(C)c2c(-c3ccccc3)cc(=O)n(C(C)C(=O)NCCc3ccccc3)c21 (stereo unspecified) | 22% | -12%
CC(=O)c1cc(-c2ccccc2)n(CCC(=O)Nc2cc(C)cc(C)c2)c1C | -6% | 23%
CCn1cc2nc(SCc3ccc(F)cc3)n(Cc3ccc(Cl)cc3)c(=O)c2n1 | -1% | -12%
Cc1ccc(N2CC(NC(=O)c3ccc(S(=O)(=O)N4CCCC4)cc3)CC2=O)cc1 (stereo unspecified) | -1% | -17%
Cc1nc2cc(-c3cccc(F)c3)nn2c(C)c1CCC(=O)NC1CCN(Cc2ccccc2)CC1 | 0% | ?
CCOc1ccc(NC(=O)NCCCN2CCN(c3ccc(OC)cc3)CC2)cc1 | -2% | -13%
C=CCn1c(N2CCN(Cc3ccc(Cl)c(Cl)c3)CC2)nc2c1c(=O)[nH]c(=O)n2C | 3% | 5%
CCOC(=O)c1ccc(NC(=O)CC2C(=O)N(c3ccccc3)C(=O)N2Cc2ccc(C)cc2)cc1 (stereo unspecified) | 53%[activator] | 1%
COc1ccc(CN2CCN(Cc3ccc(OCc4ccncc4)cc3)CC2)cc1 | ? | ?
COc1ccc(S(=O)(=O)Oc2ccc3c(c2)O/C(=C\c2sccc2C)C3=O)cc1 | -17% | -16%
O=C(CSc1nnc(-c2cccc(Cl)c2)o1)N1CCc2ccccc21 | -3% | -3%

Screening results from PubChem BioAssay.
